Bioassay records deposited in PubChem by National Center for Advancing Translational Sciences (NCATS).
D2 agonist: human D2 receptor agonism in beta-arrestin assay; P14416; DiscoveRx PathHunter D2 beta-arrestin, luminescence, 90 min; 100% = 57 uM dopamine signal; activation, % (test concentration not listed); 360,000 tested, 0.084% active; AID 624465; in the data active = activation above about 40%; inconclusive = about 15% to 40%; inactive = below about 15%; also: compound concentration not given in the record; the text of the record calls up to 30% inactive
Target sequence (P14416 whole entry, looked up): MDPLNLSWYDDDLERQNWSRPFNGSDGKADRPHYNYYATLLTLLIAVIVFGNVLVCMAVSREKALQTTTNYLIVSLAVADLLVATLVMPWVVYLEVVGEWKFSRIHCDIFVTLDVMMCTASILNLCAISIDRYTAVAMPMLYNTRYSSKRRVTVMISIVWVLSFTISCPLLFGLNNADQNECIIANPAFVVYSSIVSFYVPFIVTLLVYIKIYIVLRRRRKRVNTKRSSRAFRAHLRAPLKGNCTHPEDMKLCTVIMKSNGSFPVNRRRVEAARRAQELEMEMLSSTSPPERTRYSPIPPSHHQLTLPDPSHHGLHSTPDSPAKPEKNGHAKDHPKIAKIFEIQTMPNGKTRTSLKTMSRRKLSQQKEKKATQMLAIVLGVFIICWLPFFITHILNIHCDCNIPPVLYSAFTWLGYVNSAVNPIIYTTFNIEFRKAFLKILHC
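DiscoveRx PathHunter D2 beta-arrestin cells (2,100/well) attached overnight, then compound-stimulated 90 min at 37 C in HBSS/10 mM HEPES/0.1% Tween-20 buffer; beta-galactosidase complementation read by luminescence after 1 h at ambient temperature. Dopamine 57 uM final (EC100) as control.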
CtBP-E1A blk: inhibitors of CtBP/E1A interaction; AlphaScreen GST-E1A/His-CtBP binding, 1536-well; stronger effect = lower value; control for the full effect not named in the record; activity change, % (no concentration beside the values); 340,000 tested, 0.49% active; AID 651724; in the data active means activity change below about -65%; inconclusive means about -30% to -65%; inactive means above about -30%; also: % is scaled to controls: 0 for no effect and ±100 for the full control effect; compound concentration not given in the record
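AlphaScreen with 125 nM GST-E1A and 125 nM His-CtBP (5X stocks) in Tris pH 8.0, 300 mM NaCl, BSA, Tween 20, TCEP. Compounds preincubated 2 h at 37 deg C, then glutathione donor/nickel acceptor beads added for 1 h at 37 deg C in dark.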
D2 PAM: potentiates the human D2 dopamine receptor allosterically; potentiation, % (test concentration not listed); DiscoveRx D2 beta-arrestin cells, luminescence, 90 min; 100% = 57 uM dopamine signal; 360,000 tested, 0.23% active; P14416; AID 624464; active = potentiation of 50% or more; inconclusive = 30% to 50%; inactive = 30% or less;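 also: compound concentration not given in the record; tested on top of an EC20 dose of dopamine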
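D2 cells co-treated with compound plus 50 nM dopamine (EC20) for 90 min at 37 deg C to detect potentiation. Beta-arrestin recruitment was read as enzyme-fragment luminescence after 1 h at ambient temperature. Full response was set by 57 uM dopamine.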
gsp ag: agonists of gsp mutant (McCune-Albright syndrome). gsp mutant cells, cAMP HTRF, 30 min; control for the full effect not named in the record. Potency, µM (top dose mostly 76.9 µM), without a hit: at the highest dose activation (cAMP increase), most hits filed as activators. 340,000 tested, 0.13% active; active = well fitted activation curve with a large enough effect; inconclusive = small, poorly fitted or top-dose-only effect, or another doubt; inactive = no such curve, though single readings can be large or run the other way; cell line not stated here;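 also: phosphodiesterase inhibitor Ro 20-1724 added with compounds to block cAMP breakdown; potency is read from the fitted curve at half-maximal effect; nearly all actives have a fitted effect of over 60% in size; about a fifth of the inactives were tested at one dose only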
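Cells stably selected in G418 were plated at 2000/well, grown 16-24 hr, then given compounds in DMSO with the PDE inhibitor […] (300 uM solution added) for 30 min at 37C; cAMP was read by HTRF.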
gsp antagonist: antagonizes gsp, the McCune-Albright syndrome mutation. gsp-mutant cells, cAMP HTRF, 30 min; control for the full effect not named in the record. AID 624288. 340,000 tested, 0.4% active. Potency, µM (highest dose often 76.9 µM), inactives show top-dose activity change, negative = inhibition, most hits filed as inhibitors; active = falling curve of any shape with a large fitted effect; inconclusive = falling curve, mostly with a smaller effect; inactive = flat or rising curve; cell line not stated here;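 also: intracellular cAMP measured with PDE inhibitor Ro 20-1724 present during compound exposure; potency is read from the fitted curve at half-maximal effect; % is scaled to controls: 0 for no effect and ±100 for the full control effect; nearly all actives have a fitted effect of over 65% in size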
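HTRF cAMP read-out (cAMP-d2 plus anti-cAMP antibody-K in lysis buffer, 30 min RT). Before lysis, cells are exposed to compounds with […] for 30 min at 37C in DPBS containing Ca/Mg, BSA and Tween 20.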
Six1-Eya2 inh: blocks human Six1 binding to Eya2 | activity change, % (no concentration beside the values) | 360,000 tested, 0.56% active | AlphaScreen GST-Six1/His-Eya2 binding, biochemical; stronger effect = lower value; control for the full effect not named in the record | AID 651725; in the data active = activity change below about -65%; inconclusive = about -30% to -65%; inactive = above about -30%; also: % is scaled to controls: 0 for no effect and ±100 for the full control effect; compound concentration not given in the record
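Compounds are tested against tagged Six1 and Eya2 proteins bridged by glutathione donor and nickel acceptor beads; after a one-hour incubation at 37 °C without light, AlphaScreen emission is recorded.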
An asterisk follows results filed as active; ? = inconclusive; / = not tested or not shown; [ ] = dose if it differs, or a comment. The order is random. Share with any hit: about 1.4%.

Values run as follows: D2 agonist	CtBP-E1A blk	D2 PAM	gsp ag	gsp antagonist	Six1-Eya2 inh
C#CCOCCOCCOCCNc1nc(N2CCN(C(=O)CCCCCCCCCCNC(=O)Cn3cc(CCCCCN)nn3)CC2)nc(N2CCN(C(=O)CCCCCCCCCCNC(=O)[C@H]([C@@H](C)CC)n3cc(CCCCN=C(N)N)nn3)CC2)n1
  1.4	?	-7	/	-8%	-11
Cc1ccc2nc(C(F)OC(F)(F)F)[nH]c2c1 (stereo not drawn)
  -1.0	-3	-3	?	10%	8
O=C(C1=C(O)C(=O)N(CCN2CCOCC2)C1c1cccnc1)c1cc2ccccc2o1 (stereo not drawn)
  -3.3	3	-4	?	19%	-2
CCC(=O)N1CCc2cc(Br)cc(S(=O)(=O)NCCN3CCCCC3C)c21 (stereo not drawn)
  -2.8	0	-6	-41%[inhibitor]	12%	2
Fc1ccc(-c2cn(-c3ccccc3)c3[n+]2CCS3)cc1
  -8.9	2	-11	-8%	11%	1
Cc1cc(C)c(NS(=O)(=O)c2ccccc2)c(C)n1
  -5.2	0	-6	1%	/	17
CC(=O)c1ccc(OCCCC(=O)NCc2nnc3ccccn23)cc1
  1.0	7	0	7%[15.4 µM]	-3%	-4
CCS(=O)(=O)c1ncc(Cl)c(C(=O)Nc2ccc(S(=O)(=O)N(C)c3ccccc3)cc2)n1
  -6.7	-5	-9	14%[15.4 µM]	2%	14
COCCCNC(=O)CC(NS(=O)(=O)c1ccc(C)cc1)c1ccco1 (stereo not drawn)
  -0.5	2	-7	-22%	-4%	-4
CCOc1ccc(/C=N/Nc2cc(N3CCOCC3)nc(C)n2)c(O)c1
  -12	?	-8	17%	-6%	?
COc1ccc(-c2cc(CCC(=O)N3CCN(c4cc(C)ccc4C)CC3)on2)cc1
  -5.3	-11	-6	/	-17%	-7
CCOC(=O)N1CCN(C(=O)CN(c2ccc(Cl)c(C(F)(F)F)c2)S(C)(=O)=O)CC1
  -2.5	-6	-5	-2%	-9%	-3
O=C(NCCn1cc(SCc2ccc(F)cc2)c2ccccc21)c1ccccc1F
  -4.6	0	-7	?	?	-2
O=C(CSc1nnnn1C1CCCC1)NCc1ccccc1
  -1.7	-7	-10	-25%	8%	6
Cc1nn(-c2ccccc2)c(C)c1/C=N/n1c(-c2ccc(C(C)(C)C)cc2)n[nH]c1=S
  -1.7	-1	-11	4%	-9%[15.4 µM]	-2
CCOCCCNCc1ccc(OCc2ccc(F)cc2)c(OC)c1
  -3.5	3	-5	0%[15.4 µM]	-11%	3
Cc1cc(C)n(-c2nc(NCC3CCCO3)c3c4c(sc3n2)COC(C)(C)C4)n1 (stereo not drawn)
  -6.1	-2	4	-50%[inhibitor]	-7%	-8
CC1CCC(NS(=O)(=O)c2ccc(Cl)nc2)CC1 (stereo not drawn)
  7.7	-3	-6	-4%[15.4 µM]	3%	13
COC(=O)c1cc(C(=O)c2cccc(Cl)c2Cl)cn1C
  6.0	13	7	?	?	6
CC1CCN(C(=O)C2CCN(S(=O)(=O)c3cccc4nsnc34)CC2)CC1
  -3.1	/	-1	-55%[inhibitor]	-1%	-2

Brought forward from above: 3 entries; new compounds follow.
Values run as follows: D2 agonist	CtBP-E1A blk	D2 PAM	gsp ag	gsp antagonist	Six1-Eya2 inh
CC1CCC(NS(=O)(=O)c2ccc(Cl)nc2)CC1 (stereo not drawn)
  7.7	-3	-6	-4%[15.4 µM]	3%	13
COC(=O)c1cc(C(=O)c2cccc(Cl)c2Cl)cn1C
  6.0	13	7	?	?	6
CC1CCN(C(=O)C2CCN(S(=O)(=O)c3cccc4nsnc34)CC2)CC1
  -3.1	/	-1	-55%[inhibitor]	-1%	-2
CSc1nc2ccccc2n1CC(=O)N1CCCCC1
  -0.7	3	-4	-54%[inhibitor]	4%	1
COc1ccccc1N(CC(O)Cn1c2ccccc2c2ccccc21)S(=O)(=O)c1ccccc1 (stereo not drawn)
  1.6	2	-1	-10%[15.4 µM]	?	-7
CCc1ccccc1NC(=S)N(Cc1cccs1)C1CCCC1
  -2.1	1	-4	-2%[15.4 µM]	-21%	3
CN(Cc1cn(Cc2ccccc2)nc1-c1ccc2c(c1)OCO2)Cc1nccn1C
  -0.6	-9	-10	-10%	-4%	-12
Oc1ccccc1/C=N/N1CCCCC1
  -4.3	-21	1	-15%[15.4 µM]	1%	-19
Cc1ccc(S(=O)(=O)N2C[C@H]3n4c(=O)ccc(=O)n4C[C@H](OC(=O)Nc4cccs4)[C@@]3(O)C2)cc1
  -3.5	1	7	6%	/	4
CCn1c(=O)c2c(nc(SCC(=O)NCC3CCCO3)n2C)n(C)c1=O (stereo not drawn)
  0.9	6	3	12%	12%	0
CC(C)(O)CC[C@@H](O)[C@](C)(O)C1CC[C@@]2(O)C3=CC(=O)[C@@H]4C[C@@H](O)[C@@H](O)C[C@]4(C)C3CC[C@]12C (stereo partly drawn)
  -2.2	3	-7	/	11%	4
Clc1cccc(CN2CCCCCC2)c1Cl
  1.4	6	-36	0%[15.4 µM]	-10%	-14
O=C1COc2ccc(C(=O)c3ccccc3C(=O)O)cc2N1
  -0.6	-8	-13	-44%[inhibitor]	13%	-5
CC(=O)N/C(=C\c1ccccc1)C(=O)OCc1cccc(S(=O)(=O)N(C)C)c1
  12	4	-4	-4%	1%	0
N/C(=N\OC(=O)c1ccc(Cl)cc1Cl)c1ccc(Cl)cc1
  ?	1	114*	5%	2%	8
NC(=O)C1CCN(C2CC(=O)N(Cc3ccc(N4CCCC4=O)cc3)C2=O)CC1 (stereo not drawn)
  -2.8	1	3	?	0%	-4
O=C(O)COc1ccc(NC(=O)c2ccco2)cc1
  0.6	2	4	-9%	8%	4
O=C(CSc1ncn[nH]1)N1N=C2/C(=C/c3ccccc3)CCCC2C1c1ccccc1 (stereo not drawn)
  12	-11	9	?	35µM*	-10
CSc1[nH]c(=O)c(C(=O)O)cc1C#N
  -2.7	5	10	1%	3%	-2
CCOC(=O)Cn1c(N)c(C(=O)OC)sc1=S
  1.0	9	-12	4%	5%	0
O=C(NCCc1cccc(F)c1)C1CC(O)CN1C(=O)Nc1ccccc1 (stereo not drawn)
  -2.4	1	-5	-8%	/	1
CCC1(c2ccccc2)NC(=O)N(C)C1=O (stereo not drawn)
  -5.7	9	-2	/	1%	6
Cc1ccc(S(=O)(=O)Nc2ccccc2C(=O)Nc2nc(-c3ccc(F)cc3)cs2)cc1
  -6.0	18	1	-3%	-56%	0
COc1cc(C(=O)N2CCCCC2)ccc1OCC(=O)Nc1ccc(F)cc1
  7.2	12	-3	-37%[inhibitor]	-14%	7
CCC(=O)Nc1ccc(C(=O)Nc2c[nH]c(=O)[nH]c2=O)cc1
  4.4	/	-4	2%[15.4 µM]	15%	6
O=C(CSc1nccn1-c1ccc(Cl)cc1)Nc1ccc2c(c1)OCO2
  -5.7	-26	-26	?	3%[15.4 µM]	-27
Cc1cc(/C=N/Nc2ccc([N+](=O)[O-])cn2)c(C)n1-c1ccccc1
  -2.8	-6	3	-31%[inhibitor]	7%	-3
CCN(C(=O)COc1cc(OC)ccc1C(C)=O)C1CCS(=O)(=O)C1 (stereo not drawn)
  -0.2	/	-1	-47%[inhibitor]	8%	22
CC(C)OCCCNC(=O)C1CCC(CNS(=O)(=O)c2ccc(Cl)cc2)CC1 (stereo not drawn)
  2.5	-9	-9	-50%[inhibitor]	8%	12
CCOc1ccc(C(=S)NC2CCCCC2)cc1OCC
  0.2	-13	-7	?	-5%	-2
Cc1ccc(/C([O-])=C(/C(=S)NCCN2CCOCC2)[n+]2ccccc2)cc1[N+](=O)[O-]
  -0.3	-3	-6	-19%	24%	5
COCC1CCN(C(=O)c2oc3c(F)cccc3c2C)C1 (stereo not drawn)
  -4.5	6	15	-10%	3%	2
COc1cc(/C=N/NC(=O)Cc2ccccc2)cc([N+](=O)[O-])c1O
  -4.4	/	-9	1%	-24%	-13
COc1ccc(CNC(=O)C(c2cccs2)N(C(=O)c2csnn2)C2CC2)cc1 (stereo not drawn)
  1.2	-1	-10	0%	-6%	4
Cc1cc(C(=O)OCC(=O)Nc2c(F)cccc2F)c(C)n1-c1ccccc1
  -3.8	-12	-14	4%[15.4 µM]	-16%	-2
CCOC(=O)c1ccc(N=c2sc(C(=O)OC)cc(=O)n2Cc2ccco2)cc1
  -2.8	1	0	-81%[inhibitor]	-10%	-1
O=C(NCCc1ccccc1Cl)C1CCC(=O)N(Cc2ccc(Cl)cc2)C1 (stereo not drawn)
  -2.9	-1	-17	7%[15.4 µM]	4%	2
CCn1ccnc1CN(C)C(=O)CCc1nnc(CCCc2ccccc2)o1
  -5.0	-20	-4	?	9%	3
CNc1c(NS(=O)(=O)c2ccc(OC)c(Cl)c2)c(=O)oc2ccccc12
  1.4	2	8	-31%[inhibitor]	-3%	0
Cc1ccc(C(=O)C(C)Sc2nnc(N)s2)cc1 (stereo not drawn)
  -2.9	-1	-16	7%[15.4 µM]	0%	5
COCCC(=O)N1CCCC(C(=O)c2ccccc2SC)C1 (stereo not drawn)
  -1.9	1	-2	-45%[inhibitor]	10%	-4
O=C(O)c1ccccc1-c1ccccc1C(=O)NCc1ccccc1F
  8.2	0	-4	3%[15.4 µM]	-5%	10
COCCN1C(=O)N[C@@H](c2ccco2)C(C(C)=O)=C1C
  -2.0	/	-5	?	1%	15
NC(=O)C1(N2CCCCC2)CCN(S(=O)(=O)c2cc(Cl)sc2Cl)CC1
  -2.3	1	-10	11%	3%	-6
N#Cc1nc(-c2ccccc2F)oc1NCCc1ccccn1
  0.1	6	15	14%[15.4 µM]	-14%	0
O=C(CN1CCN(C(=O)c2ccccc2)CC1)NC(=O)NCCC1=CCCCC1
  1.1	2	-29	12%	-4%	-2
